Ecoli rRNA inh – inhibitors of bacterial rRNA selective over humanized ribosomes | E. coli WT GFP vs humanized-ribosome RFP mutants, fluorescence, 24 h; active compounds read low; DMSO median 0, no signal -100 | GFP signal change (wild-type ribosome), % (test concentration not listed) | 350,000 compounds, 1.6% hits;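 active = significant combined selectivity score with lowered wild-type GFP, culture density cut under 30%, mutant RFP and density less affected; inactive = any of these conditions unmet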; note: one replicate is shown; some compounds called inactive have numbers as strong as hits
MLL AF4-AF9 inh – blocks AF4 peptide binding to human AF9 | AlphaScreen, biotin-AF4 peptide binding to FLAG-AF9 | P42568 | inhibition, % at 10 µM | 350,000 compounds, 0.47% hits | AID 651704;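 active = every replicate reaching a set inhibition limit, whatever the replicate mean, cut at about 25% in these data; inconclusive = mean inhibition reaches that limit but some replicates miss it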;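 note: 0% = plate neutral control median and 100% = total signal loss; the record names both 10 and 1 µM as test concentration; the first replicate is given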
Target sequence (P42568 whole entry, looked up): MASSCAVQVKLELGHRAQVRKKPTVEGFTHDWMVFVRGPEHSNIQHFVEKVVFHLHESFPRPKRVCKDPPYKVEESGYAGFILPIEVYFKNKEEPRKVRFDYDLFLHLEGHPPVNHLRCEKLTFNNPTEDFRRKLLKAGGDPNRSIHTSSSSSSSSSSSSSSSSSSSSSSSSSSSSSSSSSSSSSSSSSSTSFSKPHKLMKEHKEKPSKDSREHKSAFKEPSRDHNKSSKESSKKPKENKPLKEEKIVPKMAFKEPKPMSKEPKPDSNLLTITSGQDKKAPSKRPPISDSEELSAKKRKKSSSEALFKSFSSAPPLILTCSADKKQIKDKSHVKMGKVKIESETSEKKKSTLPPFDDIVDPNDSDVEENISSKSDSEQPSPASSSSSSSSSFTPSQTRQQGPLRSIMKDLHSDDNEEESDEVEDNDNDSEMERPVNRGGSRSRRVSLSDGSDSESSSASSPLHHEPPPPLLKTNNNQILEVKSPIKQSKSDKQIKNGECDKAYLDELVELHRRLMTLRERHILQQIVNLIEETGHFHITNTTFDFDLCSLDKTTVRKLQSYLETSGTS
FGF22 binding – FGF22 (human) thermal shift binding | Q9HCT0 | recombinant FGF22 thermal shift, SYPRO orange fluorescence; percent of sucrose octasulfate shift, DMSO zero | calls only at 9.99 µM | 340,000 compounds, 1.5% hits;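 active = melting point raised past a set limit in the mean and every replicate; inconclusive = no clear call; three in four hits are not shown here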
Target sequence (Q9HCT0 whole entry, looked up): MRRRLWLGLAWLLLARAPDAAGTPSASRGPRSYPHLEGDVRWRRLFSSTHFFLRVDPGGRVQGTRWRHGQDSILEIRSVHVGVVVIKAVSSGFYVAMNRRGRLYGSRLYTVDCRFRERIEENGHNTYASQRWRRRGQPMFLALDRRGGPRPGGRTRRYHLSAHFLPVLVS
Beta cell apopt – beta cell apoptosis inhibition; protection from apoptosis, % (test concentration not listed); AID 435005; INS-1E cytokine-induced death, ATP luminescence, 48 h; percent of positive-control rescue, neutral wells zero; 300,000 compounds, 0.8% hits;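 active = all replicates at 75% or more, or half of them and the mean; inconclusive = half reach 75% but not the mean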;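 note: 0% = cytokine-treated negative control wells and 100% = positive control rescue; higher means more ATP so stronger rescue from cytokine killing; wells of about 40 µL received 100 nL stock; the first replicate is given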
Calb FLC – C. albicans growth modulation with fluconazole | C. albicans CaCi-2 (fluconazole-resistant clinical isolate) + fluconazole, Alamar Blue growth, 48 h | growth inhibition, % (test concentration not listed) | 300,000 compounds, 0.57% hits | AID 1979;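 active = most replicates above 75%; inconclusive = exactly half above 75%; inactive = most below 75%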;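 note: all wells also contain fluconazole at 8 µg/ml as a sub-toxic cotreatment; 0% = median of DMSO wells and 100% = median of geldanamycin control wells; wells of about 8 µL received 7.5 nL stock; the first replicate is given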
T cruzi repl – blocks replication of Trypanosoma cruzi; inhibition, % (concentration not given with the values); AID 1885; 300,000 compounds, 1.4% hits; T. cruzi beta-gal in NIH3T3, luminescence, 90 h;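 active = mean inhibition across valid replicates above about 55%, limit read from the data; inconclusive = mean below that limit but half or more replicates reach it; inactive = mean below it, under half of replicates reach it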;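 note: signal also drops with host cell toxicity which is not excluded here; 0% = plate median of DMSO wells and 100% = zero luminescence signal; higher percent means less beta-gal luminescence so fewer parasites; stock transfer was 50 nL into about 50 µL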
RanGTP-Imp inh – disruptors of Ran-importin-beta complex formation – biochemical, FRET, CFP-Ran, YFP-importin-beta, homogeneous, primary screen; inhibition, % (test concentration not listed); cell-free CFP-Ran/YFP-importin-beta FRET ratio; 300,000 compounds, 1.1% hits;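 active = most replicates above 15%; inconclusive = exactly half above 15%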;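 note: 0% = DMSO wells and 100% = Ran loaded with GDP instead of GTP; wells of about 40 µL received 100 nL stock; the first replicate is given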
ALR H2O2 inh – blocks human ALR sulfhydryl oxidase activity | P55789 | purified ALR, DTT oxidation, H2O2 HRP-luminol luminescence | inhibition, % (no concentration beside the values) | 290,000 compounds, 3.8% hits;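 active = mean and each replicate at 75% or more; inconclusive = only one of the two met; inactive = neither met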;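 note: stock transfer was 7.5 nL into about 7.5 µL; 0% = neutral wells and 100% = wells with inactivated enzyme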
Target sequence (P55789 whole entry, looked up): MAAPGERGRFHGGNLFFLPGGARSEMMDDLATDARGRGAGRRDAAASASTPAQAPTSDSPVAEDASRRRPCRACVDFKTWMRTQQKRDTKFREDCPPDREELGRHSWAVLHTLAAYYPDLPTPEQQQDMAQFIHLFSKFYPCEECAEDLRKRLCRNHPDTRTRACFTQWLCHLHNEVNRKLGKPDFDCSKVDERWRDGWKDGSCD
Ecoli rRNA inh OD600 – second read-out of Ecoli rRNA inh, no call of its own (marks repeat the call); OD600 change, %; measured here: OD600 growth;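 optical density of the mix in the first replicate; 0 = DMSO median and -100 = no signal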
Ecoli rRNA inh RFP – second read-out of Ecoli rRNA inh, no call of its own (marks repeat the call); RFP signal change, %; measured here: RFP humanized mutant strains;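 first replicate; 0 = DMSO median and -100 = no signal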
Starred values were filed as active, the others as inactive; i = inactive; u = inconclusive; x = not tested or not shown. Only part of the results is shown; count on the stated rates, not on these rows.

SMILES	Ecoli rRNA inh	Ecoli rRNA inh OD600	Ecoli rRNA inh RFP	MLL AF4-AF9 inh	FGF22 binding	Beta cell apopt	Calb FLC	T cruzi repl	RanGTP-Imp inh	ALR H2O2 inh
Cc1ccc(OCc2nnc(SCC(=O)NCc3ccccc3)n2C)cc1	x	x	x	x	x	-4	2	0	1.0	3
CN(Cc1ccc(O)cc1)C1CCCCC1	x	x	x	x	x	-4	-11	4	2.8	-10
CC(=O)Nc1ccc(NC(=O)c2cccc(C(=O)OC(C)C)n2)cc1	x	x	x	x	x	-3	-2	-5	5.7	4
CCOC(=O)C1=C(C)N(C)C(=O)NC1c1c(C)nn(-c2ccccc2)c1C (stereo not drawn)	x	x	x	x	x	2	4	-2	-3.0	-10
COc1cc(/C=C2\C(=N)N3N=C(C)SC3=NC2=O)cc(OC)c1OCCOc1ccccc1C	7	-1	-0.1	3.1	i	x	1	-4	2.9	-2
COc1cccc(C(NC(C)=O)c2ccc3cccnc3c2O)c1 (stereo not drawn)	-40	-61	-19	26*	i	82*	80*	57*	2.1	6
Cc1cc2nccc(-c3ccncc3)n2n1	2	7	-0.6	0.0	i	-8	12	5	-1.3	x
Cc1ccc(S(=O)(=O)N2c3cc(C)ccc3OCC2C(C)(C)C)cc1 (stereo not drawn)	x	x	x	x	x	0	-3	7	-1.9	-3
Cn1c(C(=O)c2ccccc2[N+](=O)[O-])nc2ccccc21	5	-4	2.1	5.6	x	3	17	-20	8.3	5
CCCCN(C)C(=S)Nc1ccsc1C(=O)OC	-1	1	-4.3	1.9	i	1	9	6	-1.4	-2
CCc1ccccc1NC(=O)NC1CC2CCC(C1)N2Cc1ccco1 (stereo not drawn)	9	16	-8.3	-0.9	i	-1	-3	-11	5.5	-10
COc1cc(OC)c(OC)cc1CNCCNC(=O)c1ccco1	1	9	-2.3	1.2	i	-2	-1	16	5.2	x
COc1ccc(C(=O)Oc2c(OC)cc(C(=S)N3CCOCC3)cc2OC)cc1	2	-4	0.8	-18	i	x	-6	-11	4.5	-3
CCOc1ccccc1OCCC(=O)OCC(=O)Nc1c(C)cc(C)cc1C	6	11	-1.1	-79	i	-2	-6	4	-0.5	-4
Cc1oc(CSCC2CCCO2)cc1C(=O)O (stereo not drawn)	x	x	x	x	x	-2	-1	-11	3.1	-2

The list goes on (5 carried over from the part before).
SMILES	Ecoli rRNA inh	Ecoli rRNA inh OD600	Ecoli rRNA inh RFP	MLL AF4-AF9 inh	FGF22 binding	Beta cell apopt	Calb FLC	T cruzi repl	RanGTP-Imp inh	ALR H2O2 inh
CCc1ccccc1NC(=O)NC1CC2CCC(C1)N2Cc1ccco1 (stereo not drawn)	9	16	-8.3	-0.9	i	-1	-3	-11	5.5	-10
COc1cc(OC)c(OC)cc1CNCCNC(=O)c1ccco1	1	9	-2.3	1.2	i	-2	-1	16	5.2	x
COc1ccc(C(=O)Oc2c(OC)cc(C(=S)N3CCOCC3)cc2OC)cc1	2	-4	0.8	-18	i	x	-6	-11	4.5	-3
CCOc1ccccc1OCCC(=O)OCC(=O)Nc1c(C)cc(C)cc1C	6	11	-1.1	-79	i	-2	-6	4	-0.5	-4
Cc1oc(CSCC2CCCO2)cc1C(=O)O (stereo not drawn)	x	x	x	x	x	-2	-1	-11	3.1	-2
COc1ccc(C(=O)NC2CC2)cc1OC1CCN(Cc2ccccc2O)CC1	-1	0	0.4	0.3	i	10	-5	15	0.6	5
CCn1c(SCC(=O)Nc2cc(C)on2)nnc1-c1ccc(C)cc1	-2	-9	-1.9	0.5	i	-3	23	-7	1.2	8
CCCCOc1ccc2c(c1)/C(=C(\C(Cl)=C(Cl)Cl)[N+](=O)[O-])N2	7	-3	-0.7	5.7	i	0	-3	-19	-100	-20
COc1ccc(-c2nn(C)c(=O)c3ccccc23)cc1NS(C)(=O)=O	x	x	x	x	x	-22	2	7	3.2	-7
Nc1nnc(SCCOc2cccc(Br)c2)s1	x	x	x	x	x	-4	-5	-3	1.3	-6
CCOC(=O)c1c(-c2ccccc2)oc2ccc(OC(C)=O)cc12	-4	6	1.8	-0.1	i	1	7	-11	-2.4	1
Cc1ccc2c(c1)C=CC(C)(C)S2(=O)=O	7	14	-4.0	-0.9	i	-9	30	-10	2.6	-4
COc1cccc(C2/C(=C(/O)c3ccccc3)C(=O)C(=O)N2Cc2ccco2)c1 (stereo not drawn)	x	x	x	-0.5	i	-10	-5	-3	-1.7	0
COc1ccc(C2CC(c3ccccc3)=NN2c2ccc(/C=N/NC(=O)c3ccncc3)cc2)cc1 (stereo not drawn)	x	x	x	x	x	11	-34	31	19*	-8
CCOC(=O)c1ccc2[nH]c(C)c(CCC(C)=O)c(=O)c2c1	x	x	x	-1.3	x	-1	-7	-13	-5.8	4
CCCN(CCC)C(=O)CC(c1ccccc1)c1cc(C)ccc1O (stereo not drawn)	-1	6	-0.1	6.0	i	-2	50	17	u	11
O=S(=O)(c1ccc2c(c1)OCCO2)N1CCC(n2nnc3cc(F)ccc32)CC1	x	x	x	x	x	-1	17	4	1.9	-6
COc1ccccc1NCC(=O)Nc1cc(S(=O)(=O)N2CCOCC2)ccc1N1CCOCC1	16	8	1.3	3.0	i	7	-20	11	-0.6	-6
COc1ccc(S(=O)(=O)N(CCc2ccccc2)CC(N)=O)cc1	8	6	1.1	-1.9	i	-1	0	-10	-2.5	1
Cc1cc(NC(=S)NC(=O)c2ccccc2)ccc1-c1cc2ccccc2oc1=O	3	9	-2.1	2.2	i	17	-6	-14	-0.8	-29

Looked up by structure from the entries so far, three records:
SMILES	Ecoli rRNA inh	Ecoli rRNA inh OD600	Ecoli rRNA inh RFP	MLL AF4-AF9 inh	FGF22 binding	Beta cell apopt	Calb FLC	T cruzi repl	RanGTP-Imp inh	ALR H2O2 inh
COc1ccccc1NCC(=O)Nc1cc(S(=O)(=O)N2CCOCC2)ccc1N1CCOCC1	16	8	1.3	3.0	i	7	-20	11	-0.6	-6
COc1cccc(C2/C(=C(/O)c3ccccc3)C(=O)C(=O)N2Cc2ccco2)c1 (stereo not drawn)	x	x	x	-0.5	i	-10	-5	-3	-1.7	0
CCOC(=O)c1c(-c2ccccc2)oc2ccc(OC(C)=O)cc12	-4	6	1.8	-0.1	i	1	7	-11	-2.4	1

Following part:
SMILES	Ecoli rRNA inh	Ecoli rRNA inh OD600	Ecoli rRNA inh RFP	MLL AF4-AF9 inh	FGF22 binding	Beta cell apopt	Calb FLC	T cruzi repl	RanGTP-Imp inh	ALR H2O2 inh
COCCn1c(SCC(=O)N2CCCCC2)nc2c(c1=O)SC(C)C2 (stereo not drawn)	4	-1	1.3	-0.9	i	13	-2	-20	0.5	1
COc1ccc(-c2[nH]ncc2CN2CCC(N3CCSCC3)CC2)cc1F	15	11	2.6	2.1	i	0	-3	9	-5.4	-15
CCN(CC)S(=O)(=O)c1ccc(NC(=O)CSc2cccc[n+]2[O-])cc1	-27	-34	-3.5	8.7	i	2	-8	-4	-2.0	-21
CC1(c2ccc(OC(F)F)cc2)NC(=O)N(CC(=O)Nc2cccc(S(N)(=O)=O)c2)C1=O (stereo not drawn)	7	3	-7.3	5.2	i	4	-2	-19	2.4	-8
CSC(=S)N/N=C/c1ccccc1	-1	-7	1.7	11	i	0	6	-25	0.0	26
COc1cccc(CN=c2c([N+](=O)[O-])nn(-c3ccccc3C)n2O)c1	5	4	12	3.8	i	3	30	22	-1.3	-19
Cc1ccc(-c2noc(CSc3nc(N)cc(N)n3)n2)cc1	x	x	x	x	x	-5	u	-1	2.8	8
CCC1(c2ccc(F)cc2)NC(=O)N(CC(=O)NCc2ccccc2Cl)C1=O (stereo not drawn)	-8	0	-3.4	0.4	i	4	-10	3	u	-10
O=C(O)c1ccccc1NS(=O)(=O)c1cccc2cccnc12	x	x	x	x	x	0	4	-16	-0.4	-1
CCc1ccc(NC(=O)CC2C(=O)NCCN2C(=S)Nc2ccccc2)cc1 (stereo not drawn)	x	x	x	x	x	-7	-6	-26	u	-1
CCCCOCCCNC(=O)c1ccc([N+](=O)[O-])c(C)c1	9	6	6.0	-2.2	i	3	-7	17	u	-5
O=C(NC1=NCCS1)C12CC3CC(C1)CC(C(=O)NC1=NCCS1)(C3)C2	12	7	4.9	x	x	0	1	2	1.0	-8
CN(C)S(=O)(=O)c1cccc(NC(=O)c2cc3ccccc3o2)c1	x	x	x	x	x	-2	-3	7	-5.9	-4
CCCS(=O)(=O)N1CCN(Cc2ccco2)CC1	x	x	x	x	x	1	-1	x	-0.8	-4
Cc1ccc(C(=O)NCC(=O)N2CCC(Cc3ccccc3)CC2)cc1	-37	-46	-6.5	-0.4	i	3	8	4	-3.3	-2
CCCn1nnnc1NCc1ccc(SC)cc1	0	7	-3.2	0.0	i	-2	-7	-14	-2.3	x
CCN(CC)c1ccc(NC(=O)COC(=O)CCC(=O)c2ccc(F)cc2)cc1	x	x	x	x	x	1	1	-1	1.8	46
COc1ccc2c(c1)S(=O)(=O)c1ccccc1N2	-20	-11	-3.9	2.6	i	0	22	-12	-6.2	-4
COc1ccc(CONS(=O)(=O)c2ccc(NC(C)=O)cc2)cc1Cl	-4	-11	2.7	x	x	-11	-2	-15	-1.4	12
COc1ccc(NC(=O)CSc2nnc(-c3ccccc3Cl)n2Cc2ccco2)c(OC)c1	x	x	x	x	x	4	-6	12	1.1	-6
O=C1NC(=S)S/C1=C\c1coc2ccccc2c1=O	9	-1	6.8	-0.7	i	4	44	-2	2.4	u
Cn1nc(C(F)(F)F)cc1C(=O)O	15	6	0.2	2.0	i	-3	-5	10	-6.0	-8
Cc1ccc(C(O)P(=O)(OC(C)C)c2ccc(N(C)C)cc2)cc1 (stereo not drawn)	16	1	4.9	1.3	i	-4	5	-11	2.3	12
CC(C)NC(=S)NNc1nc2ccccc2s1	-11	-18	-5.6	1.5	i	-6	-28	26	4.3	19
CN(C)c1ccc(N/C=C/C(=O)c2ccccc2)cc1	x	x	x	x	x	6	0	28	-2.7	40
COC(=O)CSc1nnc(C)n1-c1ccc(C)cc1	x	x	x	x	x	-4	-5	-19	0.5	4
O=C1CN(c2nc(-c3cccnc3)nc3scc(-c4ccccc4)c23)CCN1	0	3	-2.9	-0.9	i	8	28	63*	-1.5	x
CN(C)c1ccc(NC(=O)C[n+]2ccccc2)cc1	17	0	-5.5	14	i	x	-2	2	-3.3	99*
